Source: PubChem (several laboratories)
HIV Env fusion – inhibitors of HIV-1 Env-driven cell-cell fusion, primary screen, HeLa-JRFL effector, CEM21 target cells, luciferase; inhibition, % at 12.3 µM; 360,000 compounds, 1.1% hits; AID 651610, 2012;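 active = mean replicate inhibition score of at least 50 and every replicate individually at or above 50; inconclusive = only one of the two criteria met; inactive = mean below 50 and not all replicates reaching 50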;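 also: 0% = plate neutral controls and 100% = maraviroc near 300 nM; one replicate is shown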
Rce1 inh – yeast Rce1p protease inhibitors, primary screen, biochemical, fluorescence, cell-free homogeneous; yeast membranes, quenched prenylated peptide cleavage fluorescence; calls only; 290,000 compounds, 0.27% hits; AID 2563, 2010;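 active = fall in fluorescence gain of 50% or more versus controls, with final raw signal at or below 3038400; inconclusive = same 50% fall but final raw signal above 3038400; inactive = fall in fluorescence gain under 50%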;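 also: plate controls were neutral control wells for no effect and wells lacking membranes for full effect; tested at 10 µM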
Target sequence (Q03530 whole entry, looked up): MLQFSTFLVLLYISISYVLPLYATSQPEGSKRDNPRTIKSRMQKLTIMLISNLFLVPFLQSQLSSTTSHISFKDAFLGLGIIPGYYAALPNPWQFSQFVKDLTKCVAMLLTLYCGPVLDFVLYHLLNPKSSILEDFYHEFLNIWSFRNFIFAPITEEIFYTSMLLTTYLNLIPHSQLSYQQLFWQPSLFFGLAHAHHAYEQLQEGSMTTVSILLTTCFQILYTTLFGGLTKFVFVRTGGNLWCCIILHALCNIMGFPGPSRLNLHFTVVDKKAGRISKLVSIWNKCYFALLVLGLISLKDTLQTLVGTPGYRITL
CSC inhib – cancer stem cell viability inhibitors, primary screen, luminescence; AID 2717, 2010; 300,000 compounds, 1.1% hits; cancer stem cell-like cells viability; inhibition, % at 7.5 µM;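 active = mean at 75% or more and at least half the replicates too; inconclusive = mean and replicates disagree; tested in HMLE shEcad cells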;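 also: 0% = median of negative and 100% = median of positive control wells; the first replicate is given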
eIF4H inh – human eIF4H binding inhibitors, primary screen, translation initiation inhibitor project, biochemical, uHTS, fluorescence polarization; Eukaryotic translation initiation factor 4H (Homo sapiens), Q15056; eIF4H fluorescence polarization binding assay; inhibition, % at 35 µM; 290,000 compounds, 0.94% hits; AID 2012, 2009;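 active = 50% or more with normal probe brightness, or confirmed in later tests; inconclusive = above 50% with abnormal brightness, or retests that disagree; inactive = below 50% or failed in later tests; about a fifth of its hits are not listed in these tables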;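 also: calls also rest on retests at 20 µM and on dose response follow-up; 0% = protein and probe with vehicle and 100% = probe without protein; strong numbers were not always called active; many hits fall short of the cut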
UUG fidelity – modulators of yeast start codon fidelity, primary screen, whole organism, S. cerevisiae, single point, plate reader; 350,000 compounds, 0.13% hits; S. cerevisiae UUG-firefly luciferase reporter, luminescence/redox ratio; activity score, % at 18.7 µM;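 active = replicate mean at a twofold rise or more, about +100% in these data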;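 also: firefly luciferase made from a UUG start codon reports start codon fidelity; reporter light over untreated wells divided by growth signal over untreated wells; some hits fall short of that in this replicate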
MT1-MMP act inh – blockers of MT1-MMP proenzyme processing, primary screen, HT1080 RFP-PRO-GFP cells, GFP/RFP fluorescence. Matrix metalloproteinase-14 (Homo sapiens), P50281. GFP/RFP ratio fluorescence, overnight; percent of plate control window, DMSO zero. GFP/RFP ratio change, % at 20 µM. 360,000 compounds, 0.061% hits. AID 651647, 2012;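 active = GFP/RFP ratio change of at least 30% with cell ATP level not reduced by more than half and red fluorescence within 50% of control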; also: strong numbers were not always called active
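Test system: HT1080 RFP-PRO-GFP cells; Benchmarks: DMSO and RFP-L50D-GFP cell wells; Timing: cells overnight before dosing, compound overnight, 37 °C, 5% CO2; Compound: one 20 µM compound dose with 1% DMSO; Read-out: GFP/RFP fluorescence ratio.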
PABP polyA inh – PABP poly(A) RNA binding inhibitors, primary screen, biochemical, fluorescence polarization, uHTS. Polyadenylate-binding protein 1 (Homo sapiens), P11940. inhibition, % at 35 µM. 290,000 compounds, 1% hits;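 active = 50% or more with normal probe brightness, or confirmed in later tests; inconclusive = above 50% with abnormal brightness, or retests that disagree; inactive = below 50% or failed in later tests; about a fifth of its hits are not listed in these tables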;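 also: calls also rest on retests at 20 µM and on dose response follow-up; controls were probe without protein and protein plus probe with vehicle; some compounds called inactive have numbers as strong as hits; many hits fall short of the cut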
eIF4H inh retest – further read-out of eIF4H inh, marked with its call; inhibition, %; compound at 20 µM; confirmation average;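 mean of two retest wells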
PABP polyA inh retest – recorded beside PABP polyA inh, whose call it bears; inhibition, %; compound at 20 µM; confirmation repeats;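 mean of two retest wells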
MT1-MMP act inh RFP – also measured in MT1-MMP act inh; calls as there; RFP signal change, %; measured here: RFP expression control read;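 0 = vehicle wells; hits needed this value within 50% of zero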
* = called active by the depositor; i = inactive; ? = inconclusive; · = not tested or not shown.

SMILES | HIV Env fusion | Rce1 inh | CSC inhib | eIF4H inh | UUG fidelity | MT1-MMP act inh | MT1-MMP act inh RFP | PABP polyA inh | others
Cc1cc(C(=O)CSc2n[nH]c(N)n2)c(C)n1-c1ccccc1 | -80.9 | i | 14.6 | -2.7 | -24.8 | -5.4 | -1.0 | -8.9
CC1=C(C(=O)O)N2C(=O)C(NC(=O)c3nn(C)c(C)c3Cl)C2SC1 (stereo unspecified) | -0.4 | i | · | 3.8 | · | 0.6 | 2.1 | 1.8
CNC(=S)Nn1cnc2ccccc21 | 11.5 | i | -12.4 | -6.2 | -10.6 | -5.1 | 1.3 | 5.8
O=c1c2c(nc3cc(-c4ccc(Br)cc4)[nH]n13)CCCC2 | -145.4 | i | 7.9 | -4.4 | -16.9 | 7.1 | -0.2 | 12.3
CCN(CC(=O)NCc1cccs1)C(=O)/C=C/c1ccc(Cl)c(Cl)c1 | · | i | 11.7 | · | -13.1 | -3.8 | 1.2 | ·
COc1cc2c(cc1OC)CN(C(=O)CCNS(=O)(=O)c1ccc(Br)cc1)CC2 | -2.4 | i | 4.6 | · | · | 1.5 | -1.2 | ·
COc1cccc(C(=O)Nc2nnc(SCC(=O)NC3CC3)s2)c1 | -11.5 | · | -6.4 | 2.0 | -13.1 | 0.8 | 0.8 | -1.4
CN(C)c1cc(NC(=O)CN2CCOCC2)c2ccccc2n1 | · | i | -0.1 | · | -10.1 | 3.8 | 0.6 | ·
COc1ccc(CN(C)C(=O)c2cccc(NS(=O)(=O)c3ccccc3)c2)c(OC)c1 | 5.4 | i | -3.9 | 2.0 | -3.2 | 0.7 | -2.3 | 3.5
CC(/C=N/n1c(COc2ccccc2)n[nH]c1=S)=C\c1ccccc1 | -0.5 | i | -21.6 | -1.1 | -24.2 | 9.0 | 0.1 | 4.6
C=C(C)Cn1c(NCCOC)nc2c1c(=O)[nH]c(=O)n2C | · | i | -7.4 | -6.0 | -9.9 | 0.4 | 7.7 | ?
CCN(CC)S(=O)(=O)c1ccc(NCC2COc3ccccc3O2)c([N+](=O)[O-])c1 (stereo unspecified) | · | i | 29.6 | -3.6 | · | -2.7 | -12.6 | -11.6
COc1ccc(C2(C(=O)Nc3nncs3)CCCC2)cc1 | 0.5 | i | 2.5 | 80.3 | -0.1 | 4.8 | 3.9 | -0.8 | eIF4H inh retest=-2.4;PABP polyA inh retest=-1.6
N#Cc1ccc(NC(=O)Cn2c3[n+](c4ccc(C(F)(F)F)cc42)CCCCC3)cc1 | 0.1 | i | -23.3 | -5.0 | · | 0.7 | 4.6 | -7.3
O=C(O)Cn1c(=O)c(-c2ccccc2)nc2ccccc21 | -38.2 | i | 10.1 | 5.1 | -0.2 | -3.7 | -0.8 | 7.8
CS(=O)(=O)N(CC(=O)N1CCN(c2ccccc2)CC1)C1CCCCC1 | -8.2 | i | -6.8 | -6.7 | -4.1 | -2.3 | 3.5 | -22.5
CCn1c(=O)c2c3c(sc2n2c(SCc4ccc(F)cc4)nnc12)CCCC3 | -2.8 | i | -3.4 | · | -8.1 | -7.9 | -14.4 | ·
Cc1nc2ccccc2c(=O)n1Cc1ccc([N+](=O)[O-])cc1 | 6.7 | i | -1.8 | -6.2 | -0.1 | -1.1 | -1.8 | -8.9
Nc1ncnc2c1ncn2[C@@H]1O[C@H](C(=O)N2CCN(c3nc4ccccc4o3)CC2)[C@@H](O)[C@H]1O | 16.9 | · | · | · | -14.8 | 3.7 | 3.2 | ·
Cc1ccccc1OCc1nnc(SCC(=O)NCc2ccco2)n1C | -5.0 | i | -9.2 | -11.6 | -14.6 | 2.6 | 6.9 | -1.3

Pulled by compound from above (2):
SMILES | HIV Env fusion | Rce1 inh | CSC inhib | eIF4H inh | UUG fidelity | MT1-MMP act inh | MT1-MMP act inh RFP | PABP polyA inh | others
N#Cc1ccc(NC(=O)Cn2c3[n+](c4ccc(C(F)(F)F)cc42)CCCCC3)cc1 | 0.1 | i | -23.3 | -5.0 | · | 0.7 | 4.6 | -7.3
CC1=C(C(=O)O)N2C(=O)C(NC(=O)c3nn(C)c(C)c3Cl)C2SC1 (stereo unspecified) | -0.4 | i | · | 3.8 | · | 0.6 | 2.1 | 1.8

(cont.)
SMILES | HIV Env fusion | Rce1 inh | CSC inhib | eIF4H inh | UUG fidelity | MT1-MMP act inh | MT1-MMP act inh RFP | PABP polyA inh | others
O=C(NCCc1ccccc1)C(=O)NCC1CCCN1S(=O)(=O)c1cccs1 (stereo unspecified) | -6.9 | i | 5.7 | · | -23.9 | -4.5 | -0.2 | ·
N#Cc1cnc(SCCc2ccccc2)nc1N | i | i | -6.5 | 1.4 | -0.9 | -9.7 | 2.0 | 16.6
CC(=Nc1ccc(C)c(C)c1)C1=C(O)CSC1=O | · | i | 5.1 | 10.3 | -6.7 | -8.3 | 0.1 | 31.8
CCCCn1c(SCC(=O)NCc2ccco2)nc2ccccc2c1=O | -7.1 | i | -11.2 | 15.0 | -18.6 | 2.1 | 0.5 | 0.2
COc1cccc(CN2CCC(n3nccc3NC(=O)C3CC3)CC2)c1 | -1.0 | i | -12.4 | · | -7.6 | -1.0 | 1.3 | ·
COC(=O)[C@H](C(C)C)n1c(C)c(C(C)=O)c(C(C)=O)c1C | · | i | -13.0 | 5.4 | -11.2 | -1.3 | 1.6 | -1.9
O=C(CSc1nc2c(sc3ccccc32)c(=O)n1-c1ccccc1)NCc1ccco1 | -146.1 | i | 35.8 | 2.5 | · | -2.2 | -4.0 | -13.2
COc1cccc(-c2sc3ccc(OC)cc3c2C#CC(C)(C)O)c1 | -56.3 | · | 117.8* | · | -8.2 | 1.7 | -5.1 | ·
CN(C)S(=O)(=O)c1cc(NC(=O)c2cc(=O)[nH]c3ccccc23)ccc1Cl | · | i | 4.3 | -4.4 | · | · | · | -6.8
Cc1cc(C)n(CC(=O)c2ccc(Cl)cc2)n1 | 32.4 | i | -8.8 | 0.6 | -15.3 | 0.3 | 0.8 | ?
O=C(NCCCN1CCOCC1)c1ccc(CSCc2cccc(Cl)c2)o1 | 16.2 | i | 0.7 | 4.5 | -13.5 | 5.3 | -1.6 | 12.7
O=C(CCCN1C(=O)c2ccccc2C1=O)N1CCN(c2ccccn2)CC1 | -64.1 | i | -6.2 | -3.9 | -6.7 | 0.9 | 4.0 | -7.2
Cc1ccc(-c2nc(S(=O)(=O)c3ccc(C)cc3)c(SCC(N)=O)o2)cc1 | 1.9 | i | -4.5 | -8.5 | -3.4 | -11.0 | -2.0 | -0.6
Cc1cccc(NC(=O)C2CCCN2/C=C/C(=O)C(F)(F)F)c1C (stereo unspecified) | 12.6 | i | -7.2 | 7.1 | · | 1.0 | 6.7 | -13.4
Cc1ccc(CSc2nc3c(c(=O)[nH]2)CCC3)cc1 | -20.7 | i | 1.5 | -12.0 | -14.4 | 8.1 | 8.6 | -8.6
Cc1cc(C)c(NC(=O)CS(=O)CC(=O)Nc2cccnc2)c(C)c1 (stereo unspecified) | -5.9 | i | -8.9 | 94.1 | -19.3 | 0.5 | -0.5 | 8.2 | eIF4H inh retest=-5.0;PABP polyA inh retest=-1.2
C#CCCOC(=O)N1C2=NC(C(=O)OC)=C(C(=O)OC)[C@@H]3N(C)c4ccc(OC)cc4[C@]23C[C@H]1C(=O)OC | -77.7 | i | -4.2 | · | -8.0 | 0.0 | 2.7 | ·
C/C(CC(=O)NC1CCCCC1)=N\NC(=O)Cc1ccc(-c2ccccc2)cc1 | -7.1 | · | -3.4 | -4.4 | · | 3.7 | 9.4 | -9.3
O=c1[nH]c(CN2CCCCC2)nc2ccccc12 | · | i | · | -0.7 | · | 4.3 | 1.2 | 2.1
CC(=O)N1c2ccc(S(=O)(=O)N3CCCCC3)cc2CC1C(=O)NCc1ccccc1C (stereo unspecified) | -13.1 | i | 4.2 | -6.6 | 11.4 | 2.2 | -3.0 | 3.8
COc1ccc(N2CCN(C(=O)COC(=O)c3ccco3)CC2)cc1 | · | i | -1.0 | 1.6 | -8.2 | -1.9 | -2.2 | 11.5
O=C(O)c1c2c(nc3ccccc13)/C(=C/c1ccccc1[N+](=O)[O-])CCC2 | -7.5 | · | 1.7 | 4.6 | -24.9 | -2.8 | -2.4 | 14.3
CC1CC(=O)NN=C1c1cccs1 (stereo unspecified) | -1.2 | i | -8.2 | 7.6 | -15.0 | 2.5 | 3.6 | 9.1
CC(=O)Oc1ccc(C(=O)Nc2ccc3c(c2)OCCO3)cc1 | -3.2 | i | 17.1 | 3.6 | -31.7 | 0.9 | -0.4 | -0.9
O=C(O)CCCC(=O)N1CCN(C(c2ccccc2)c2ccccc2)CC1 | -6.8 | i | -2.8 | 3.4 | · | -6.7 | 1.3 | -3.2
OCCN1CCOCCOCCN(CCO)CCN(CCO)CC1 | -95.7 | i | 2.3 | 0.0 | -2.3 | -0.2 | 1.1 | 1.4
O=C(CCC1CC(=O)Nc2ccccc21)NCc1cccnc1 (stereo unspecified) | 15.8 | i | -11.1 | 7.8 | -19.0 | 1.3 | 4.3 | -5.8
O=C1C=CN(Cc2ccccc2)C(c2ccccc2)C1 (stereo unspecified) | 21.3 | · | · | · | -10.6 | -0.8 | 0.9 | ·
O=c1ccc2cc(S(=O)(=O)Nc3ccc(Br)cc3)ccc2o1 | 44.1 | i | -9.0 | -2.5 | -0.7 | 2.4 | -7.0 | 2.2
COCCN(C(=S)Nc1cc(C)cc(C)c1)C(C)c1ccco1 (stereo unspecified) | -12.5 | i | -10.9 | -1.9 | · | -5.6 | -5.7 | -5.7
CC(CCC(C)OC(=O)c1ccccc1C(=O)O)OC(=O)c1ccccc1C(=O)O (stereo unspecified) | 3.7 | i | -8.3 | 91.5 | -1.7 | -3.4 | 2.8 | -8.0 | eIF4H inh retest=-0.9;PABP polyA inh retest=9.3
COC(=O)C1CCN(c2cc(=O)n(Cc3ccc(F)cc3)c(=O)[nH]2)CC1 | · | i | -8.0 | 1.9 | -4.1 | 1.8 | 2.5 | -19.9
CC(=O)c1ccc(OCC(O)CN2CCN(S(=O)(=O)c3c(C)cc(C)cc3C)CC2)cc1 (stereo unspecified) | 26.5 | i | -1.3 | -9.7 | -6.8 | -7.8 | -4.9 | -0.1
COc1ccccc1N1CCN(S(=O)(=O)CCNC(=O)C2CCCCC2)CC1 | 2.5 | i | -6.7 | · | -3.6 | 22.6 | -2.5 | ·
COc1cc(/C=N/NC(=O)c2cccnc2)ccc1OS(=O)(=O)c1ccc(C)cc1 | 12.8 | i | -1.2 | 6.1 | · | 3.9 | 1.6 | 1.3
COc1cc(/C=N/NC(=O)c2ccncc2)ccc1OCCN1CCCCC1 | · | i | -5.0 | 4.1 | · | 1.9 | 3.7 | -6.1
Cc1cc(C)cc(OC(=O)CCN2C(=O)c3ccccc3C2=O)c1 | 1.1 | i | -6.6 | 0.9 | -16.5 | 1.0 | 2.9 | -14.5
COC(=O)c1c(C)[nH]c(C(=O)CSc2ncnc3sc(-c4ccccc4)cc23)c1C | -16.0 | i | 0.3 | -5.8 | -1.2 | 4.3 | 1.4 | -6.1
O=C(c1ccc(Oc2ccc([N+](=O)[O-])cc2)cc1)N1CCCCCC1 | 15.5 | i | 15.2 | -6.4 | 8.7 | -4.0 | -28.5 | -3.6
